Screens from PubChem.
VDR inh: vitamin D3 receptor (human) inhibition. P11473. VDR-SRC2-3 peptide fluorescence polarization, 2 h. Potency, µM, for the others: max response, negative = inhibition, most hits filed as inhibitors. 0.93% of 400,000 active; active = well fitted inhibition curve with a large enough effect; inconclusive = small, poorly fitted or top-dose-only effect, or another doubt; inactive = no such curve, though single readings can be large or run the other way; note: series mostly up to about 120 µM
Target sequence (P11473 whole entry, looked up): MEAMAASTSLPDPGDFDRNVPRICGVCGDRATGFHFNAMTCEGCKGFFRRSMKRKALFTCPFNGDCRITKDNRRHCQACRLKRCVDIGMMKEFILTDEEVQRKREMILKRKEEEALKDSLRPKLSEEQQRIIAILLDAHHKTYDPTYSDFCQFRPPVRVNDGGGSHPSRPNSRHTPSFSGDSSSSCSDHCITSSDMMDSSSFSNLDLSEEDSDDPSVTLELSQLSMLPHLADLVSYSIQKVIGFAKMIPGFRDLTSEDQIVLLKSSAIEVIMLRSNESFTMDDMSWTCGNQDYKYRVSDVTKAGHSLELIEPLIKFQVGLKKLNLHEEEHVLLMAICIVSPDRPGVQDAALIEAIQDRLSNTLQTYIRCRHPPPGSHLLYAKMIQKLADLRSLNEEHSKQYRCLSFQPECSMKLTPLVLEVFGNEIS
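Compounds are added to VDR with labelled SRC2-3 coactivator peptide and held 2 h at room temperature. Inhibition of the VDR–peptide interaction is then read as a change in fluorescence polarization.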
The depositor's hits bear a star; ? = inconclusive; [ ] = another dose, or the depositor's remark. % is set by controls: 0 for no effect and ±100 for the full control effect; potency is the fitted concentration of half-maximal effect. An excerpt; rates above refer to the full screens.

no.	VDR inh	Molecule
1	6%	CNC(=O)NCC12CC3CC(CC(C3)C1)C2
2	-22%	Cc1nn(C)c(C(=O)N/N=C/c2ccncc2)c1Cl
3	6%	CC(=O)Nc1ccc(S(=O)(=O)Nc2nc3ccccc3nc2N2CCCC2)cc1
4	10%	COc1cc(OC)cc(C(=O)NCC(=O)OC2CCOC2=O)c1 (configuration not stated)
5	14%	COc1ccc(-c2nc(NC(=O)CSCCO)sc2C)cc1
6	-12%	COc1ccc(C2=Nc3ccc(OC(F)(F)F)cc3NC(c3cccnc3)=N2)cc1
7	11%	CCOC(=O)C1=CC[C@H]2c3c(c4ccccc4n3C)C(=O)C1N2S(=O)(=O)c1ccc(C)cc1
8	?	C=CCOc1c(Br)cc(/C=C2/NC(=S)N(C(C)=O)C2=O)cc1OC
9	13%	O=C(COC(=O)Cn1cnc2ccccc21)Nc1cc(S(=O)(=O)N2CCOCC2)ccc1Cl
10	5%	CCOc1ccc(N2CC(C(=O)N3CCN(c4ccccn4)CC3)CC2=O)cc1 (configuration not stated)
11	2%	CCCSc1nc2ccsc2c(=O)n1CC
12	-7%	O=C(c1csnn1)N1CCC2(CC1)CN(c1ccncc1)C2
13	-13%	CC(NC(=O)Nc1cccc(Cl)c1)C(c1cccs1)N1CCCC1 (configuration not stated)
14	5%	O=C(COc1ccc(F)cc1Cl)N(Cc1nnc(-c2ccccc2Cl)o1)C1CC1
15	-9%	Cc1ccc(S(=O)(=O)NNC2CC(=O)N(c3ccc(Br)cc3)C2=O)cc1 (configuration not stated)
16	2%	c1ccc(Cn2cc(CNc3ccccc3)nn2)cc1
17	-8%	Cc1ccc(/C=C2\SC(=S)N(Cc3ccccc3)C2=O)o1
18	-10%	NC(=NC(=O)c1ccc(OC(F)(F)F)cc1)c1ccc(C(F)(F)F)cn1
19	-1%	COC(C(=O)Nc1ccnn1C1CCN(Cc2ccc(C)s2)CC1)c1ccccc1 (configuration not stated)
20	4%	Cc1cc(Cl)ccc1Oc1ncc(CN2CCN(c3ccccc3)CC2)s1
21	13%	CSc1nc2ccc(NS(=O)(=O)c3ccc(Cl)s3)cc2s1
22	-10%	CN(C(=O)c1ccco1)c1nc(CC(=O)Nc2ccccc2)cs1
23	2%	CSc1ccccc1NC(=O)CN1C(=O)C2CC=CCC2C1=O (configuration not stated)
24	-2%	COc1ccc(NC(=O)N(CCO)Cc2cc3c(C)cc(C)cc3[nH]c2=O)cc1
25	16%	CC(=O)Nc1ccc(S(=O)(=O)NCC(=O)Nc2ccc3c(c2)OCO3)cc1

The final two compounds of the part above are carried over, then new ones follow.
no.	VDR inh	Molecule
24	-2%	COc1ccc(NC(=O)N(CCO)Cc2cc3c(C)cc(C)cc3[nH]c2=O)cc1
25	16%	CC(=O)Nc1ccc(S(=O)(=O)NCC(=O)Nc2ccc3c(c2)OCO3)cc1
26	-8%	COc1ccc(N(C(=O)c2cnccn2)C(C(=O)NCc2ccccc2)c2ccc(O)cc2)cc1 (configuration not stated)
27	2%	CCCOc1ccc(N2C(=O)CC(SC(=N)N3N=C(c4ccccc4)CC3c3ccccc3)C2=O)cc1 (configuration not stated)
28	6%	COC(=O)c1c(NC(=O)CSc2nnnn2-c2ccccc2)sc2c1CCCC2
29	-7%	O=C(Nc1ccc(Cl)c(S(=O)(=O)N2CCOCC2)c1)c1cc(=O)[nH]c2ccccc12
30	-6%	COc1ccccc1NC(=O)C1CCN(S(=O)(=O)c2ccc3c(c2)CC(C)N3C(C)=O)CC1 (configuration not stated)
31	3%	Cn1c(SCc2ccc(C#N)cc2)nnc1-c1cccc(Cl)c1
32	-18%	COc1ccc(-c2csc(NC(=O)CSc3nc(SC)ns3)n2)cc1
33	-13%	COc1cccc(C2c3[nH]c4ccccc4c3C[C@H]3C(=O)N(C4CC4)CC(=O)N23)c1 (some centres not stated)
34	-18%	O=C(CN1C(=O)CCC1=O)Nc1nc(-c2ccc3ccccc3c2)cs1
35	-15%	Nc1ncnc2c1ncn2[C@@H]1O[C@H](CO)[C@@H](O)[C@@H]1O
36	-7%	CCN(CCO)Cc1cn[nH]c1-c1ccc(C)c(C)c1
37	6%	COc1cc(-c2nc3n(n2)C(c2ccncc2)C2=C(CCCC2=O)N3)cc(OC)c1OC (configuration not stated)
38	-25%	O=C(c1ccc(-c2ccccc2)c(F)c1)C1CCCN(C(=O)c2cncs2)C1 (configuration not stated)
39	5%	CCOC(=O)Cn1nc(C)c2c1CCCC2=O
40	-6%	O=C(Nc1nc(-c2ccncc2)cs1)C1c2ccccc2Oc2ccccc21
41	23%	O=C(COC(=O)c1ccc2c(c1)OCCO2)NCCc1ccccc1
42	-8%	COc1cc(OC)cc(-c2oc(=O)c3cc(OC)c(OC)cc3c2/C=C/c2ccc(F)cc2)c1
43	6%	O=C(Nc1nc(=O)[nH]s1)c1ccccc1
44	-20%	NC(=O)NC(CC(=O)NCCCc1ccccc1)c1ccccc1Cl (configuration not stated)
45	3%	Cc1c(C(=O)N2CCCC2)sc(NC(=O)c2cccc(Cl)c2)c1C#N
46	-10%	C/C(=N/NC(=O)c1cc(-c2cccc([N+](=O)[O-])c2)n[nH]1)c1cccc(O)c1
47	0%	COc1cccc(NC(=O)c2csc3c2CCCCC3)c1
48	-7%	Cc1ccc(S(=O)(=O)N(C)C)cc1NC(=O)COC(=O)C1CC(=O)N(c2ccc3c(c2)OCCO3)C1 (configuration not stated)
49	2%	O=C(Nc1c(F)cc(F)cc1Br)c1cc2nc(C(F)F)cc(C(F)F)n2n1
50	4%	CCCCNC(=O)CCCn1c(=S)[nH]c2cc3c(cc2c1=O)OCO3
51	?	CC1(C)CC(NC(=S)NC(=O)c2cc(Br)ccc2Cl)CC(C)(C)N1
52	-3%	CC(=O)Nc1ccc(OCc2cnc(Cl)s2)cc1
53	-7%	O=c1ccnc(SCCc2ccccc2)[nH]1
54	7%	CCOc1ccc(N/C=C/C(=O)c2ccc(OC)c(OC)c2)cc1
55	10%	O=C(CSc1nnc(Cc2ccc3c(c2)OCO3)n1C1CCCCC1)NC1CCCC1
56	2%	CC(C)(C)c1ccc(S(=O)(=O)O/N=C2/CCCCC2c2ccc([N+](=O)[O-])cc2[N+](=O)[O-])cc1 (configuration not stated)
57	-19%	Cc1c(C(=O)N2CCCCC2)c(S(=O)(=O)N(C)Cc2ccco2)c(C)n1C
58	13%	Cc1ncc(CN2CCCC(C(=O)Nc3ccc(-c4cccc(F)c4)cc3)C2)cn1 (configuration not stated)
59	4%	COc1cccc(NC(=O)COC(=O)C2CC2)c1
60	-1%	COc1ccc(NC(=O)CN(c2ccc(C)cc2)S(=O)(=O)c2cccs2)cc1
61	-9%	Cc1nc(Nc2nc(-c3ccccc3)cc(=O)[nH]2)nc2ccccc12
62	10%	NNC(=O)CN1C(c2cccc(Cl)c2)=Nc2ccc(Br)cc2C1c1ccccc1 (configuration not stated)
63	15%	COc1ccc(NC(=O)c2nnn(CC(=O)Nc3c(C)cc(C)cc3C)c2N)cc1OC
64	9%	COc1ccc(C(=O)COC(=O)CCCn2c(=O)oc3ccccc32)cc1
65	-9%	COc1ccc(CCNC(=O)C(C)OC(=O)c2cccs2)cc1OC (configuration not stated)
66	-19%	CCOC(=O)c1c(C)[nH]c(C(=O)OCc2ccccc2F)c1C
67	-4%	COc1ccc(-n2c(=O)c3ccc(C(=O)NCc4ccc(C)cc4)cc3n(CC(=O)Nc3cccc(F)c3)c2=O)cc1
68	1%	O=C1CC(=Nc2ccccc2)NN1c1ccccc1
69	-8%	Nc1cc(=O)[nH]c(SCC(=O)N2CCC(Cc3ccccc3)CC2)n1
70	7%	COc1cccc(NC(=O)CN(C)C(=O)CC2Sc3ccccc3NC2=O)c1 (configuration not stated)
71	3%	CCCN(C(=O)Cc1ccc(S(=O)(=O)N2CCOCC2)s1)c1c(N)n(Cc2ccccc2)c(=O)[nH]c1=O
72	-5%	COc1cccc(S(=O)(=O)Nc2cccc(C(=O)N3CCCCCC3)c2)c1
73	-8%	O=C(C[n+]1ccc(C(=O)N/N=C/c2ccc(OCc3ccccc3)cc2)cc1)c1ccccc1
74	?	Clc1ccc(CO/N=C2\CCCc3nonc32)cc1
75	-1%	CC1CCCN(C(c2ccccc2)c2sc3ncnn3c2O)C1 (configuration not stated)

Rewritten with bars between the fields: entries from further up.
nr | smiles | VDR inh
15 | Cc1ccc(S(=O)(=O)NNC2CC(=O)N(c3ccc(Br)cc3)C2=O)cc1 (configuration not stated) | -9%
16 | c1ccc(Cn2cc(CNc3ccccc3)nn2)cc1 | 2%

Additional compounds follow.
no.	VDR inh	Molecule
76	20%	Cc1cc2nn(-c3ccc(F)cc3)nc2cc1NC(=O)c1ccc(OC(C)C)cc1
77	1%	Cc1ccc(N2CCN(Cc3nnc(-c4ccc5c(c4)OCO5)o3)CC2)c(C)c1
78	-4%	COC(=O)C1C(=O)C(C(=O)c2ccc([N+](=O)[O-])cc2)C(=O)CC1(C)C (configuration not stated)
79	?	Cc1ccc2oc(C(=O)N(C)Cc3ccc(C)o3)c(C)c2c1
80	7%	Cc1ccc(NC(=O)Cn2c(C)cc(C)c(C#N)c2=O)cc1F
81	-7%	COc1ccccc1NC(=O)c1ccc(NS(=O)(=O)c2c(C)noc2C)cc1
82	-2%	O=C(Cn1c(-c2ccco2)nc2ccccc21)N1CCCCC1
83	17%	O=C(CSCc1ccc(F)cc1)Nc1ccccc1
84	2%	O=C(NCc1ccccc1)c1ccc(NC(=O)c2ccco2)cc1
85	6%	Cc1ccc(NC(=O)c2ccc(CNS(=O)(=O)c3ccc4c(c3)C(C)(C)C(=O)N4C)cc2)cc1F
86	58%[activator]	Cc1cc(C)c(NC(=O)CN(C)CC(=O)Nc2cccc(S(=O)(=O)N(C)c3ccccc3)c2)c(C)c1
87	5%	O=C(c1cccnc1)N1CCCC(Nc2ccc(F)cc2)C1 (configuration not stated)
88	-12%	CCc1ccc2[nH]c(C)c(CN3CCCCCC3)c(=O)c2c1
89	?	N#CC1=C(N)SC(N)=C(C#N)C1c1cccc(Oc2ccccc2)c1
90	-23%	N#CC1=C(N)C(C#N)(C#N)C(c2cccnc2)C2COCC=C12 (configuration not stated)
91	15%	CC(C)C[C@H](NC(=O)[C@H](Cc1c[nH]c2ccccc12)NC(=O)[C@H](CCCCN)NC(=O)CNC(=O)[C@H](CC(C)C)NC(=O)[C@H](CO)NC(=O)[C@@H](N)Cc1cnc[nH]1)C(=O)NCC(=O)N[C@@H](Cc1cnc[nH]1)C(=O)N1CCC[C@H]1C(=O)N[C@@H](CC(=O)O)C(=O)N[C@@H](CCCCN)C(=O)N[C@@H](Cc1ccccc1)C(=O)O
92	-14%	COc1ccc(-c2nc3cc(NC(=O)c4ccc5c(c4)OCO5)ccc3o2)cc1
93	-11%	Cc1cc(C(=O)CCC(=O)NCC(=O)Nc2c(C)cccc2C)c(C)s1
94	3%	O=C(Nc1nccs1)c1ccc(Cl)c(S(=O)(=O)N2CCCCC2)c1
95	-24%	O=C(NC1CCCCC1)C(c1ccccc1)N1CCC2(CC1)OCCO2 (configuration not stated)
96	-20%	Cc1ccccc1C(=O)Nc1ccc2nc3n(c(=O)c2c1)CCC3
97	-13%	CCc1ccc(OCC(=O)N(Cc2ccc(C(C)C)cc2)C2CCS(=O)(=O)C2)cc1 (configuration not stated)
98	-1%	O=C(Nc1ccccc1N1CCCCC1)c1cccc(OC(F)F)c1
99	?	Cc1c(C(=O)Oc2ccc(-c3cnc4ccccc4n3)cc2)cccc1[N+](=O)[O-]
100	-13%	CC1=NNC(=O)C1CCC(=O)N/N=C/C(Br)=C/c1ccccc1 (configuration not stated)

In the list so far, these contain bromine.
no.	VDR inh	Molecule
8	?	C=CCOc1c(Br)cc(/C=C2/NC(=S)N(C(C)=O)C2=O)cc1OC
15	-9%	Cc1ccc(S(=O)(=O)NNC2CC(=O)N(c3ccc(Br)cc3)C2=O)cc1 (configuration not stated)
49	2%	O=C(Nc1c(F)cc(F)cc1Br)c1cc2nc(C(F)F)cc(C(F)F)n2n1
51	?	CC1(C)CC(NC(=S)NC(=O)c2cc(Br)ccc2Cl)CC(C)(C)N1
62	10%	NNC(=O)CN1C(c2cccc(Cl)c2)=Nc2ccc(Br)cc2C1c1ccccc1 (configuration not stated)
100	-13%	CC1=NNC(=O)C1CCC(=O)N/N=C/C(Br)=C/c1ccccc1 (configuration not stated)

Additional compounds
no.	VDR inh	Molecule
101	-11%	CC(=O)c1c(C)nc(-c2ccc(Cl)cc2)nc1NC(=O)C(C)C
102	15%	COc1ccc(/C=C/C(=O)Nc2cccc(S(=O)(=O)N3CCCC3)c2)cc1OC
103	9%	O=S(=O)(NCc1nnc2ccccn12)c1ccc(Cl)cc1
104	10%	CCOc1ccc(CNC(=O)c2cccc(NC(=O)N3CCSc4ncccc43)c2)cc1OC
105	-9%	COc1cccc2cc(C(=O)NCc3ccc(Cl)cc3)c(=N)oc12
106	3%	CCc1cc(C(=O)OC)c(NC(=O)CC2SC(=NC)N(C)C2=O)s1 (configuration not stated)
107	7%	Cc1ccc(CNC(=O)Cn2cc(S(=O)(=O)Cc3cccc(Cl)c3)c3ccccc32)cc1
108	-5%	O=C(NCCO)C(=O)NCC(c1ccc2c(c1)OCO2)N1CCN(c2ccc(F)cc2)CC1 (configuration not stated)
109	-12%	COc1ccccc1NC(=O)c1sc2nc3c(c(C(F)(F)F)c2c1N)CN(C(C)=O)CC3
110	11%	CCN(CC)c1ccc(S(=O)(=O)N2CCOCC2)cc1NC(=O)CN1C(=O)NC2(CCCC2)C1=O
111	7%	Cc1ccsc1/C=N/NC(=O)c1nnn(-c2nonc2N)c1C
112	21%	CCOc1ccccc1CNS(=O)(=O)c1cc2c(cc1C)NC(=O)CO2
113	-11%	CSCC[C@H](NC(=O)NCCC1=CCCCC1)C(=O)O
114	15%	CCCn1c2ccccc2c2cnn(CC(=O)NC3CCCC(C)C3C)c(=O)c21 (configuration not stated)
115	8%	COc1ccc(CCNC(=O)c2cc3c(=O)n4cccc(C)c4nc3n(CC3CCCO3)c2=N)cc1 (configuration not stated)
116	23%	CCc1ccccc1NC(=O)Cn1c2ncccc2c(=O)n1-c1ccccc1
